PrP 5UTR inh = suppresses PrP 5' UTR mRNA reporter expression; inhibition, % (no concentration beside the values); 340,000 tested, 0.35% active; cell-based PrP 5' UTR mRNA reporter, plate reader;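 active = every replicate at 50% or more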;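 also: 0 = median of the neutral control wells; tested in H4 reporter cells; numbers are from one replicate; inactives centre near -14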
Sa ugtP lethal = growth inhibition of S. aureus ugtP deletion strain | S. aureus RN4220 ugtP deletion, OD600 growth, 16 h; some inactives read as strong as hits | growth inhibition, % (concentration not given with the values) | 330,000 tested, 0.54% active | AID 1259309;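 active = z-score under -3 and OD600 up to 0.15 on both plates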;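 also: plate controls were untreated wells for no effect and antibiotic for full effect; wells of about 80 µL received 100 nL stock; the first replicate is given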
BJeLR lethal = BJeLR cell viability loss; BJeLR (HRASV12) viability, CellTiter-Glo ATP luminescence, 48 h; reference of the scale not given here; inhibition, % (test concentration not listed); 300,000 tested, 0.17% active; AID 1554;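 active = replicate mean above 50%; inconclusive = above 50% but judged a plate artefact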;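 also: 50 nL library stock added to about 25 µL; numbers are from one replicate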
RN4220 kill = kills Staphylococcus aureus RN4220; 330,000 tested, 0.33% active; AID 1259311; inhibition, % (no concentration beside the values); S. aureus RN4220 growth, OD600, 16 h;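 active = z-score of -3 or lower and OD600 up to 0.18 on both plates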;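 also: plate controls were untreated cells for no effect and reference antibiotic for full effect; stock transfer was 100 nL into about 80 µL; one replicate is shown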
Mtb hypoxia rep = inhibitors of hypoxia-regulated fluorescent reporter in Mycobacterium tuberculosis. 300,000 tested, 0.1% active. AID 1159583. fluorescence inhibition, % (no concentration beside the values). M. tuberculosis hypoxia-regulated fluorescent reporter, fluorescence;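 active = 35 to 45% if threefold the growth effect, above 45% if 1.5-fold the growth effect; inactive = the rest, general growth blockers included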;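 also: wells of about 50 µL received 100 nL stock; 0% = vehicle wells and 100% = reference inhibitor wells; whole bacteria with a GFP reporter of the hypoxia response; strong numbers were not always called active; many hits fall short of the cut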
Bead autofluor = counter-screen for toxin protease inhibitors: compound fluorescence; fluorescence intensity (concentration not given with the values); compound autofluorescence counterscreen, microsphere flow cytometry; hits give high values; 360,000 tested, 3.1% active;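 active = at least 3 SD above the mean of all compounds, about 16000 in these data; inconclusive = too few beads counted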;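 also: 100 nL of 1 mM stock went into each well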
Mtb hypoxia rep growth = recorded beside Mtb hypoxia rep, whose call it bears; growth inhibition, %; measured here: M. tuberculosis growth (absorbance);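 0% = vehicle and 100% = reference antibiotic; read after six days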
* marks the source's active call; other numbers are inactive results; ? = inconclusive; · = not tested or not shown.

SMILES	PrP 5UTR inh	Sa ugtP lethal	BJeLR lethal	RN4220 kill	Mtb hypoxia rep	Mtb hypoxia rep growth	Bead autofluor
CCC(C(=O)NC(C)(C)C)N(Cc1ccco1)C(=O)CNS(=O)(=O)c1ccc(OC)cc1 (configuration not stated)	-14	11	-7	1.6	9	8	5168
Cc1ccc(S(=O)(=O)NCC(=O)Nc2cccc([N+](=O)[O-])c2)cc1	-16	-12	·	-3.1	-4	5	4457
CSCCC(NS(=O)(=O)/C=C/c1ccccc1)C(=O)O (configuration not stated)	-4	4	-14	0.7	6	2	4594
c1ccc2c(c1)OCCOCCOc1ccccc1OCCOCCO2	-16	-3	3	6.4	10	7	2039
O=C(CSCc1cccc(Cl)c1)NCc1ccc2c(c1)OCO2	-77	5	-7	-1.1	7	7	21289*
CN1CCC/C1=C1/C(=O)N(c2ccccc2)N=C1NC(=O)Nc1cccc(Cl)c1	5	0	1	0.0	1	-1	4115
Cc1ccc(S(=O)(=O)N2CC(=NN=C(N)N)C2)cc1	-18	9	10	1.5	7	2	3457
c1ccc(CCNc2ncnc3scc(C4COc5ccccc5O4)c23)cc1 (configuration not stated)	-4	-37	0	-9.3	-9	3	5906
CCN(CC)C(=O)C(=O)N/N=C/c1ccc(C(=O)OC)cc1	-27	·	1	·	·	·	2117
COc1ccc(C2CC(O)(c3ccccc3)Oc3cc(OC)c(OC)c(OC)c32)cc1 (configuration not stated)	-15	8	4	4.6	2	-13	4158
O=C(O)CCCCCNC(=O)/C=C/c1ccco1	0	-2	-8	3.4	7	2	3275
CCOC(=O)c1ccccc1NC(=O)COC(=O)CSCC(=O)Nc1cc(C)on1	-27	12	-8	1.3	4	0	6214
c1ccc2c3c([nH]c2c1)C1(CCCCC1)NCC3	-45	-5	-4	-0.2	·	·	5343
O=C(O)c1ccc(Cn2cc(C(F)(F)F)ccc2=O)cc1	-16	15	1	3.2	11	9	2191
COc1ccc(CCNC(=O)Cn2nc(C(=O)O)c3ccccc3c2=O)cc1OC	-17	8	2	6.9	-2	0	4661
Cn1c(N)c(C(=O)CSc2nnc(NC3CCCCC3)s2)c(=O)n(C)c1=O	-1	4	·	5.7	3	2	4556
OC1COC(OCC2OC(OCc3ccccc3)C(O)C(O)C2O)C(O)C1O (configuration not stated)	-14	-4	2	-0.3	·	·	5481
O=C(NCc1ccc2c(c1)OCO2)c1ccc2c(c1)C(=O)N(Cc1cccnc1)C2=O	-5	-1	0	1.8	·	·	5797
C/C=C/C(=O)Nc1ccccc1Br	-21	3	-1	2.1	6	3	9310
Cc1ccc(S(=O)(=O)N2CCN(S(=O)(=O)N3CCCCC3)CC2)c(C)c1	-7	2	-3	3.3	-3	2	9533
COc1ccccc1C(=O)NCCn1cc(SCC(=O)NCC2CCCO2)c2ccccc21 (configuration not stated)	-12	-6	0	1.1	3	-27	·
Cc1ccccc1OCC(=O)NN=Cc1ccc([N+](=O)[O-])o1	·	22	·	11	4	12	·
CCN(CC(=O)NCc1cccs1)C(=O)c1ccc(S(=O)(=O)Nc2ccccc2C)cc1	-16	8	-4	1.3	5	1	?
Cc1nc(/C(N)=N/OC(=O)c2cccc(Cl)c2)c(C(F)(F)F)o1	-25	-3	-9	5.4	4	9	6011
O=C1OC(Nc2ccc3c(c2)OCO3)c2ccccc21 (configuration not stated)	-7	14	-5	0.8	20	17	3396
Cc1ccc2[nH]c3c(=O)n(CCCN4CCOCC4)cnc3c2c1	-3	-3	1	5.3	3	10	4004
Cc1ccc(C=NNc2cc(C)nc(N3CCOCC3)n2)cc1	·	-1	·	7.3	17	8	·
CCOc1ccc(N2C=Nc3ccc(OCC)cc3C2)cc1	·	0	2	5.4	21	22	3533
Cc1ccc(S(=O)(=O)N(Cc2ccccc2)c2ccccc2C(=O)N2CCCCC2)cc1	-2	-11	2	4.7	-11	3	3449
CC(=NNc1ccc(F)cc1F)c1cccs1	·	10	·	4.8	-6	2	·
CC(C)CCOc1ccc(-c2c(=O)n(OCc3ccc([N+](=O)[O-])cc3)c3ccccc3[n+]2[O-])cc1	-1	-2	-5	6.4	1	0	10608
Cc1nc(C(=O)Nc2cccc(Cl)c2Cl)nn1-c1cc(OC(C)C)c(Cl)cc1Cl	-19	-13	-9	-5.9	-10	1	9147
COc1cc(/C=C(\C#N)C(=O)N2CCc3ccccc32)ccc1O	-15	3	5	3.9	-7	-8	4959
O=C(Nc1ccccc1C(=O)NC1CCCCC1)c1ccccc1	-29	1	-11	0.2	-4	8	4867
Cc1cccc(NC(=O)c2cnc3scc(C)n3c2=O)c1	-37	14	8	1.3	12	9	6162
COc1ccccc1C1CCCN1Cc1nc(-c2ccc(C)s2)oc1C (configuration not stated)	-19	-6	14	0.3	-6	-21	8354
Cc1cc(NC(=O)C(C)Sc2nc(-c3cccs3)nc3ccccc23)no1 (configuration not stated)	-16	-17	·	-0.2	7	-2	5400
O=C(Cn1cnc2ccccc2c1=O)N1CCN(c2ccc(F)cc2)CC1	-12	2	-9	1.6	-7	-3	4365
Cc1ccc2c(Cl)c(C(=O)Nc3nn[nH]n3)sc2c1	-13	5	1	12	2	4	3347
Cc1ccc([C@@H]2C[C@H]3CN(Cc4cccc(Cl)c4)C(=O)[C@]34CCCN24)o1	-15	1	-1	3.6	-1	17	4500
Cc1ccc(N2CC(C(=O)N3CCOCC3)CC2=O)cc1C (configuration not stated)	-22	4	-7	4.9	-3	-6	3732
COc1ccc(CCn2nnc(-c3ccc(NC(C)=O)c(Cl)c3)n2)cc1	-4	4	-9	7.3	2	2	2976
Cn1c(SSc2ccc(-c3cccnc3)n2C)ccc1-c1cccnc1	-20	2	·	9.3	13	14	3958
Cc1cc(NC(=O)Nc2ccccc2[N+](=O)[O-])no1	-36	-2	6	3.3	2	11	4499
O=C(O)C(c1ccccc1)N1C(=O)/C(=C\c2ccc(-c3cccc(Cl)c3)o2)SC1=S (configuration not stated)	·	96*	7	96*	10	-12	3150
CC(C)CC1NC(=O)N(CC(=O)Nc2ccccc2-c2ccccc2)C1=O (configuration not stated)	-7	1	-1	-5.0	7	-1	4062
COc1c(C)cc(C(=O)C2CCCN(Cc3c(C)n(C)n(-c4ccccc4)c3=O)C2)cc1C (configuration not stated)	-23	1	-5	-1.3	0	-8	3705
O=C(CCc1nnc2ccc(N3CCCC3)nn12)Nc1cc(F)ccc1F	-7	4	-3	2.5	9	-9	5287
CC1CC1C(=O)Nc1nc2ccc(Cl)cc2s1 (configuration not stated)	-70	11	11	-2.8	9	5	5132
CCN(C(=O)CSc1nnc(-c2ccc(Cl)cc2)n1C)C1CCS(=O)(=O)C1 (configuration not stated)	-6	-9	2	1.0	-3	1	3288

(list continues)
SMILES	PrP 5UTR inh	Sa ugtP lethal	BJeLR lethal	RN4220 kill	Mtb hypoxia rep	Mtb hypoxia rep growth	Bead autofluor
Cc1cc(C)nc(NN=Cc2sccc2C)n1	·	4	·	4.5	0	6	·
CC(C)N(C(=O)CSc1nc(COc2ccccc2)nc2ccccc12)C(C)C	-22	1	1	8.5	15	5	3829
COc1ccc(OC)c(S(=O)(=O)n2cccn2)c1	-10	8	-8	0.3	-1	-2	3776
O=C(CNc1cccc2ccccc12)N/N=C/C(Br)=C/c1ccccc1	-21	·	-5	·	·	·	9497
Cc1ccc(-n2c(O)c(C=Nc3ccc(S(=O)(=O)Nc4ncccn4)cc3)c3ccccc3c2=O)cc1C	-18	1	-2	17	-2	-8	·
COc1ccccc1C(=O)NC(=O)Nc1c(C)cc(C)cc1C	-19	4	-2	3.0	7	5	4003
CC(C)=N/N=C(/c1ccc([N+](=O)[O-])cc1)C12CN3CN(CN(C3)C1)C2	-2	·	4	·	·	·	2462
O=C(CN1C(=O)/C(=C/c2cccc(Br)c2)SC1=S)NC1=NCCS1	-19	2	-2	4.5	6	-2	2637
CCOC(=O)N1CCN(CC(=O)Nc2ccc(F)c(F)c2F)CC1	-34	3	3	2.4	-1	10	8264
CC1=N/C(=C\c2cc(Br)cc(Br)c2O)C(=O)O1	·	-4	·	2.1	-4	-2	·
Cc1ccc(C2(C)NC(=O)N(CC(=O)NNC(=O)c3cc(C)oc3C)C2=O)cc1 (configuration not stated)	-41	0	0	2.7	-2	-3	?
COc1ccc(C(C)(C)C)cc1NC(=O)Cn1cnnn1	-17	8	4	8.5	17	10	4459
COCCN1C(=O)C(=O)/C(=C(/O)c2ccc(S(=O)(=O)N3CCCCC3)cc2)C1c1ccc(OC)c(OC)c1 (configuration not stated)	-22	·	4	·	·	·	5937
COc1ccc(CCNC(=O)c2ccccc2NC(=O)c2ccco2)cc1OC	-24	-5	15	10	2	3	3086
O=C(CN1CCC(n2nnc3ccccc32)CC1)Nc1ccc2c(c1)CCC2	-28	-11	-6	4.1	8	9	8546
O=c1c2c3c(sc2n(CCN2CCCC2)c(=O)n1Cc1ccccc1)CCCCC3	·	7	0	-5.0	2	-1	5839
CCOC(=O)CSc1nc2c(c(=O)n1-c1ccc(OCC)cc1)SCC2	-15	-1	-10	4.2	-3	0	11499
Cc1ccc(OCCNS(=O)(=O)c2ccc(Cl)cc2)cc1	-7	0	·	3.0	-3	1	5541
CCc1ccc2c(c1)cc(CN(C(=S)Nc1ccccc1C)C1CC1)c1nnnn12	-9	5	-2	10	-5	-2	9243
CC(=NN1CCN(c2ccccc2)CC1)c1ccccc1O	·	3	·	2.1	9	7	·
Cn1c(=O)cc(C(=O)N/N=C/c2ccc(F)cc2)[nH]c1=O	-19	·	-4	·	·	·	3686
Cc1c(C=NNC(=O)CNc2ccccc2)c2ccccn2c1C(=O)c1ccncc1	·	-2	·	7.1	4	2	·
Cc1cc(N2CCOCC2)c2c(N)c(Br)cc(C)c2n1	15	0	10	-0.9	·	·	4767
O=C(CSc1nnc(-c2ccco2)o1)NCC(=O)c1ccccc1	-19	-3	1	-1.1	9	8	7943
Cc1cccc(OCc2cc(-c3ccccc3)no2)c1C	-2	18	-6	-0.7	13	-1	3746
COC(=O)c1ccc(NC(=O)COc2cccc3c2OC(C)(C)C3)cc1	-17	11	-6	5.5	11	-2	4521
O=C(Cc1ccccc1[N+](=O)[O-])N1CCN(c2ccccc2F)CC1	9	3	-6	1.8	12	4	2475
CCC(=O)N1CCc2cc(S(=O)(=O)NCCc3ccc(S(N)(=O)=O)cc3)ccc21	-1	1	-5	0.9	4	5	5333
CCOC(=O)CC1(C)NC(=O)c2c(C)sc(C(=O)OCC)c2N1 (configuration not stated)	-13	-1	3	-12	0	9	3392
CC(=O)Nc1ccc(C2=CC(=O)CC(c3ccc(Cl)cc3)C2)cc1 (configuration not stated)	·	-2	·	2.7	11	0	·
CCc1ccc(S(=O)(=O)NCc2cn3cccc(C)c3n2)s1	-1	0	9	3.5	6	13	2302
CN(C)CCN(CC1CCCN(Cc2ccccc2F)C1)C(=O)Cc1ccc(F)c(F)c1 (configuration not stated)	-22	5	-12	1.6	8	-5	4427
CCOC(=O)C1=C(c2ccccc2)OC(N)=C(C#N)C1c1cccnc1 (configuration not stated)	-22	6	8	6.5	-3	6	3163
O=[N+]([O-])c1ccc(Oc2ccc(S(=O)(=O)N3CCCCC3)cc2)cc1	-25	11	12	-4.8	10	14	2463
Cc1c(NC(=S)NN=Cc2ccc([N+](=O)[O-])cc2O)c(=O)n(-c2ccccc2)n1C	·	38	·	57	11	-2	·
CSCCC(NC(=O)c1ccc(Cl)cc1Cl)C(=O)NCc1ccncc1 (configuration not stated)	-15	2	3	-1.9	0	4	5488
O=C(CN(C(=O)CCC(=O)Nc1nccs1)c1ccc2c(c1)OCO2)NCc1ccc(F)cc1	-2	7	2	2.9	-5	1	5811
Cc1ccc(S(=O)(=O)Nc2cc3c4c(c2)CC(=O)N4CCC3)cc1	-13	-3	-1	1.7	-1	3	·

Pulled by structure from the list above, 3 records:
SMILES	PrP 5UTR inh	Sa ugtP lethal	BJeLR lethal	RN4220 kill	Mtb hypoxia rep	Mtb hypoxia rep growth	Bead autofluor
CC(C)N(C(=O)CSc1nc(COc2ccccc2)nc2ccccc12)C(C)C	-22	1	1	8.5	15	5	3829
CCN(CC)C(=O)C(=O)N/N=C/c1ccc(C(=O)OC)cc1	-27	·	1	·	·	·	2117
C/C=C/C(=O)Nc1ccccc1Br	-21	3	-1	2.1	6	3	9310

Screening data from PubChem BioAssay.

An unsorted share of the library. About 4.1% of those tested had a hit in this group.
